Sa helicase inh: inhibitors of S. aureus replicative helicase, primary screen, biochemical, fluorescence unwinding readout; replicative DNA helicase (DnaC/DnaB), Staphylococcus aureus; inhibition, %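 (tested at about 80 µM)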; purified S. aureus helicase, fluorescence unwinding assay; about half of the hits fall short of the stated cut; 0.05% of 120,000 active;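 active = both duplicates at 50% or more, or one of them with a favoured structure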;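 also: 0% = mean of negative control wells and 100% = mean of positive control wells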
MgrA-DNA mod: S. aureus MgrA activity modulators, primary screen, biochemical, S. aureus Newman, fluorescence polarization; MgrA-DNA binding; inhibition, %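 (about 10 µg/mL by stock and volumes)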; 0.13% of 84,000 active;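 active = above 50% in either of two replicates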;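 also: 0% = protein plus DNA without compound and 100% = DNA alone without protein; higher means less MgrA bound to DNA so lower polarization; one replicate is shown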
* = called active by the depositor. Not all compounds are listed (hit frequency here may not be typical).

For CSc1sc(Br)c(Cl)c1S(=O)(=O)C(C)C the results were MgrA-DNA mod 3.6.
For CC(=O)Nc1ccc2c(c1)C(C)(C)C(C)N2C (stereo not drawn) the results were Sa helicase inh 6 and MgrA-DNA mod 0.6.
`CCc1c(C)[nH]c(C)c1C(=O)OC` gave Sa helicase inh -12.
`CCC(C)(C(=O)Nc1ccc2c(c1)OCCO2)N(C(C)=O)c1ccc(C(N)=O)cc1` (stereo not drawn) gave Sa helicase inh 8.
Screening CN(C)c1ccc(C(=O)NN)cc1 returned MgrA-DNA mod 3.2.
O=C(CN(c1cccc([N+](=O)[O-])c1)S(=O)(=O)c1ccccc1)NCCSCc1ccccc1Cl was read as MgrA-DNA mod 1.1.
For O=C(c1cccc(CN2CCN(Cc3ccccc3)CC2)c1)N1CCC(O)CC1 the results were MgrA-DNA mod 1.8.
`c1ccc(-n2nnnc2-c2nc3ccccc3s2)cc1` gave Sa helicase inh -6.
`Cc1nnn(C23CC4CC(CC(C(=O)NCc5ccc6c(c5)OCO6)(C4)C2)C3)n1` gave Sa helicase inh -31.
N#Cc1c(S/C=C(\O)c2cc3ccccc3o2)nc2c(c1C(F)(F)F)CCCC2 was read as Sa helicase inh -139.
`CC(C)(C)C1(OCSC#N)C(=O)N=CN=CN1Cc1ccccc1` (stereo not drawn) gave Sa helicase inh -3.
For CC(C)(C)n1nnc(-c2ccccc2)n1 the results were Sa helicase inh 12 and MgrA-DNA mod -1.9.
For CCn1c(SCC(=O)NC2CCCCC2)nnc1C(CO)NC(=O)c1ccccc1 (stereo not drawn) the results were Sa helicase inh 4 and MgrA-DNA mod 0.2.
Screening O=C(CSc1nc2cc(Cl)ccc2o1)NC1CC1 returned Sa helicase inh 10 and MgrA-DNA mod 1.3.
For N#Cc1nc(-c2ccc(Cl)cc2)oc1N1CCCC1 the results were Sa helicase inh 12.
For c1ccc(C[n+]2ccc(-c3nc4ccccc4s3)cc2)cc1 the results were Sa helicase inh -3 and MgrA-DNA mod 0.8.
For C(=Nc1ccccc1)c1ccc(N2CCOCC2)cc1 the results were Sa helicase inh 0 and MgrA-DNA mod 3.2.
Screening CC(Nc1ncnc2c1oc1ccccc12)c1ccccc1 (stereo not drawn) returned Sa helicase inh -6.
Screening Cc1nnc(SCC(=O)NCc2ccc(F)cc2)n(N)c1=O returned Sa helicase inh 1.
O=[N+]([O-])c1ccc(O)c(N=Cc2sc3ccccc3c2O)c1 was read as MgrA-DNA mod 0.4.

The list goes on, starting with the last 4 of the part before.
For C(=Nc1ccccc1)c1ccc(N2CCOCC2)cc1 the results were Sa helicase inh 0 and MgrA-DNA mod 3.2.
Screening CC(Nc1ncnc2c1oc1ccccc12)c1ccccc1 (stereo not drawn) returned Sa helicase inh -6.
Screening Cc1nnc(SCC(=O)NCc2ccc(F)cc2)n(N)c1=O returned Sa helicase inh 1.
O=[N+]([O-])c1ccc(O)c(N=Cc2sc3ccccc3c2O)c1 was read as MgrA-DNA mod 0.4.
`CSc1nc(N)nc(-c2cc(Cl)cc(Cl)c2)n1` gave MgrA-DNA mod -2.8.
CCN=C1S/C(=C\c2cn(CC(=O)NCCOC)c3ccccc23)C(=O)N1CC was read as Sa helicase inh 2 and MgrA-DNA mod -0.1.
OC(c1cccc(C(F)(F)F)c1)c1nnc(-c2ccccc2)o1 (stereo not drawn) was read as Sa helicase inh -2.
Screening COCCOc1ccc(C(F)(F)F)cc1NC(=O)c1ccc2c(=O)n3c(nc2c1)CCC3 returned Sa helicase inh -8.
`COC(=O)c1cc(S(=O)(=O)Nc2ccsc2C(=O)OC)oc1C` gave Sa helicase inh -22.
Screening CCOC(=O)COc1nc(-c2cccs2)cc(C(F)(F)F)n1 returned Sa helicase inh 20 and MgrA-DNA mod 3.8.
O=S(=O)(Cc1ccc(Br)cc1F)c1cccs1 was read as Sa helicase inh -15.
For O=C1CC(c2ccco2)CC(O)=C1C=NCCN1CCNCC1 (stereo not drawn) the results were Sa helicase inh -2 and MgrA-DNA mod 2.0.
`CCN(CC)S(=O)(=O)c1ccc(C(=O)C(C#N)c2nc3ccccc3c(=O)[nH]2)cc1` (stereo not drawn) gave Sa helicase inh 19.
Screening O=C(NCc1ccccc1F)C1CC(=O)N(Cc2ccco2)C1 (stereo not drawn) returned Sa helicase inh 11.
`O=C(CSc1ccccn1)Nc1cccc(F)c1` gave Sa helicase inh 8 and MgrA-DNA mod -1.9.
O=C(NCc1cn2ccsc2n1)c1ccccc1C(F)(F)F was read as Sa helicase inh 15 and MgrA-DNA mod 0.8.
Screening CCCC1CCC(c2ccc(OC(=O)c3cccs3)cc2)CC1 (stereo not drawn) returned Sa helicase inh 2 and MgrA-DNA mod 4.2.
Screening Cc1ccc([N+](=O)[O-])c2c1NC(c1cccc([N+](=O)[O-])c1)C1CC=CC21 (stereo not drawn) returned MgrA-DNA mod 0.2.
CCCc1nc(C(C)(C)O)c(C(=O)OCc2oc(=O)oc2C)n1Cc1ccc(-c2ccccc2-c2nn[nH]n2)cc1 was read as MgrA-DNA mod 2.2.
O=c1c(Cl)c(NCCc2ccccc2)cnn1-c1nc2ccccc2o1 was read as Sa helicase inh 7.
For O=C(NCCCSc1ccccn1)Nc1ncccn1 the results were Sa helicase inh 2.
Screening CCOC(C)n1cccc1-c1ccccc1 (stereo not drawn) returned Sa helicase inh -3 and MgrA-DNA mod 2.8.
Screening Cc1ccc(NC(=O)C(NCCCN2CCCC2=O)c2ccccc2)cc1 (stereo not drawn) returned Sa helicase inh -3.
For O=C(Nc1ccc(N2CCOCC2)cc1)OCc1ccccc1 the results were Sa helicase inh 18 and MgrA-DNA mod 1.0.
For NC(=O)N/N=c1/oc2ccccc2cc1-c1nc2ccccc2[nH]1 the results were Sa helicase inh -109.
For COc1ccc(Cn2c(=O)c3cccnc3n(CC(=O)Nc3ccccc3OC)c2=O)cc1 the results were Sa helicase inh -7.
For CC(C)NC(=O)c1ccc2c(=O)[nH]c3c(C(=O)NC(C)C)sc(=S)n3c2c1 the results were Sa helicase inh 4 and MgrA-DNA mod 4.3.
COc1cccc2c1Oc1ncccc1NC2 was read as Sa helicase inh -9.
Screening COc1ccc2nc3oc(C(=O)Nc4cc(Cl)c(OC)cc4OC)cc3cc2c1 returned Sa helicase inh -35.
O=C1ON=C(CSc2ccccc2)/C1=C/c1ccccc1 was read as MgrA-DNA mod 6.2.
`CC(=O)N1CCN(C(=S)c2ccc(-c3cccc(Cl)c3Cl)o2)CC1` gave Sa helicase inh 1 and MgrA-DNA mod 6.8.
`CCOC(=O)c1oc2ccc(Br)cc2c1N` gave Sa helicase inh 17 and MgrA-DNA mod 0.3.
CCCN(CC1CC1)C(=O)CSc1nc(N)cc(N)n1 was read as Sa helicase inh 27.
NC(=S)NN1N=C(c2ccccc2)CC1=O was read as Sa helicase inh -2 and MgrA-DNA mod 0.2.
`CCc1ccccc1NC(=O)CSc1nc2c(c(=O)[nH]1)CCC2` gave Sa helicase inh -11 and MgrA-DNA mod 0.2.
For CN(Cc1ccc(-c2ccc(Cl)cc2)o1)C(=O)CC1Oc2ccccc2NC1=O (stereo not drawn) the results were Sa helicase inh -15.
Cc1ccnc2nc(C(=O)Nc3ccc(S(=O)(=O)N4CCCC4)cc3)nn12 was read as Sa helicase inh -5.
Screening FC(F)(F)COc1nc(NCCOC23CC4CC(CC(C4)C2)C3)nc(OCC(F)(F)F)n1 returned Sa helicase inh 18 and MgrA-DNA mod -2.5.
For CCCCN(C)C(=O)c1cnn(-c2ccc(C)cc2)c1-n1cccc1 the results were Sa helicase inh 23.
For Cc1ccn2cc(CCNC(=O)c3ccc(C(F)(F)F)cc3)nc2c1 the results were Sa helicase inh 3 and MgrA-DNA mod -1.4.
CC(C)C(NC(=O)C1CCCCC1)C(=O)Nc1ccc2c(c1)OCCO2 (stereo not drawn) was read as Sa helicase inh 5.
Screening Cc1cccc(C2N=C(c3cnccn3)NN2)c1 (stereo not drawn) returned Sa helicase inh -13.
Screening O=C(CN1CCCC1)N1c2ccccc2Sc2ccccc21 returned Sa helicase inh 9 and MgrA-DNA mod -2.2.
`Oc1ccc(C2(c3ccccc3O)CCCCC2)cc1` gave Sa helicase inh -3.
Screening CCc1nn2c(=O)c(S(=O)(=O)Nc3ccccc3)c(C)nc2s1 returned Sa helicase inh 6 and MgrA-DNA mod 2.0.
`Nc1[nH]c(=O)[nH]c(=O)c1N=Nc1cc(C(=O)O)cc(C(=O)O)c1` gave Sa helicase inh 0.
Screening Cc1nn(C)c2sc(C(=O)NCCc3ccccn3)cc12 returned MgrA-DNA mod 0.2.
`C=CCNc1nc2c(c(=O)[nH]c(=O)n2C)n1C` gave Sa helicase inh 12.
Screening Cn1c2ccc(Br)cc2c2nc3ccccc3nc21 returned MgrA-DNA mod -0.8.
Screening N#Cc1c(N)sn(-c2ccccc2)c1=S returned Sa helicase inh -11.
`CC(=O)N1CCN(c2ccc(NC(=O)COc3ccc(Cl)c(C)c3)cc2)CC1` gave Sa helicase inh 8 and MgrA-DNA mod 0.2.
CN(C)CCNC(=O)Cn1cnc2ccccc2c1=O was read as Sa helicase inh -23.
NCCSc1cc(C(F)(F)F)nc2ccccc12 was read as MgrA-DNA mod -0.6.
For CCS(=O)(=O)Nc1cccc(C2=NN(S(=O)(=O)CC)C(c3ccccc3)C2)c1 (stereo not drawn) the results were Sa helicase inh -43 and MgrA-DNA mod 2.4.
Screening CCOC(=O)c1cc2c(=O)n3ccccc3nc2n(C(C)C)c1=NC(C)=O returned Sa helicase inh 1 and MgrA-DNA mod 2.9.
For Cc1nn(C)c(-n2ncc(C#N)c2N)c1[N+](=O)[O-] the results were MgrA-DNA mod -2.7.
CCC(N)Cn1nnn(-c2ccccc2)c1=O (stereo not drawn) was read as Sa helicase inh -21.
`COc1cccc(-n2c(=S)sc3c(=O)n(-c4ccccc4)c(SCC4OCCO4)nc32)c1` gave Sa helicase inh 13 and MgrA-DNA mod 0.0.
For COc1ccccc1C(C1=C(O)COC1=O)c1cc2c(cc1O)OCO2 (stereo not drawn) the results were Sa helicase inh 4 and MgrA-DNA mod -3.8.
Screening C=CCSc1nnc(NC(=O)NC2CCCCC2)s1 returned Sa helicase inh 12.
CC(=O)Nc1ccc(NC(=O)CN(C)S(=O)(=O)c2ccc3c(c2)CCC(=O)N3)cc1 was read as Sa helicase inh 2.
For COC(=O)Cc1cc(=O)[nH]c(/N=C(\N)Nc2cccc(C)c2)n1 the results were Sa helicase inh -30.
C=CCc1ccccc1Oc1cc(F)nc(N)n1 was read as Sa helicase inh 11 and MgrA-DNA mod -0.4.
`CC1(C)Cc2c(c(N3CCNCC3)[nH]c(=S)c2C#N)CO1` gave Sa helicase inh 5 and MgrA-DNA mod 5.6.

The closing four compounds of the part before are carried over, then new ones follow:
CC(=O)Nc1ccc(NC(=O)CN(C)S(=O)(=O)c2ccc3c(c2)CCC(=O)N3)cc1 was read as Sa helicase inh 2.
For COC(=O)Cc1cc(=O)[nH]c(/N=C(\N)Nc2cccc(C)c2)n1 the results were Sa helicase inh -30.
C=CCc1ccccc1Oc1cc(F)nc(N)n1 was read as Sa helicase inh 11 and MgrA-DNA mod -0.4.
`CC1(C)Cc2c(c(N3CCNCC3)[nH]c(=S)c2C#N)CO1` gave Sa helicase inh 5 and MgrA-DNA mod 5.6.
`O=C(O)CCN1CCc2ccccc2C1c1ccncc1` (stereo not drawn) gave Sa helicase inh -11.
For CCc1cccc(NC(=O)C2CCN(Cc3cnn(-c4ccccc4)c3-n3cccc3)CC2)c1 the results were Sa helicase inh 22 and MgrA-DNA mod 4.7.
CC(c1ccccc1)n1cnc2c(oc3ccccc32)c1=O (stereo not drawn) was read as Sa helicase inh 2.
`COc1ccc(OC)c(-c2cc(C(=O)N3CCCc4ccccc43)no2)c1` gave Sa helicase inh 11.
For CS(=O)(=N/C=C(\C#N)S(=O)(=O)c1ccccn1)c1ccc(Cl)cc1 (stereo not drawn) the results were MgrA-DNA mod -2.6.
O=C(OCc1cc(=O)n2cc(Br)ccc2n1)C1=COCCO1 was read as Sa helicase inh 3.
Screening O=c1cc(-c2ccccc2)nc(SCc2nc(-c3cccs3)no2)[nH]1 returned Sa helicase inh 9 and MgrA-DNA mod -0.9.
Screening CN(Cc1ccccc1)C(=O)c1nn2c(C(F)(F)F)cc(-c3ccco3)nc2c1Cl returned MgrA-DNA mod -1.0.
`CCS(=O)(=O)CCSc1nc2ccccc2o1` gave Sa helicase inh 7 and MgrA-DNA mod 3.8.
`O=C(C1CCN(c2ccc(-c3cccs3)nn2)CC1)N1CCc2ccccc21` gave Sa helicase inh 9.
`O=C(NC1CCCCC1)c1cc2c(=O)oc3ccccc3c2s1` gave Sa helicase inh 13.
Screening C=C(C)CSc1n[nH]c(=S)s1 returned Sa helicase inh -5.
For O=C(CSc1ccc2c(c1)OCCO2)NCc1ccco1 the results were Sa helicase inh 23.
For CC(C)c1ccc(C2C3CN(C(C)C)CC=C3C(C#N)=C(N)C2(C#N)C#N)cc1 (stereo not drawn) the results were Sa helicase inh -3.
Screening O=C(Nc1ccc2c(c1)OCO2)Nc1cnn(Cc2ccc(Br)cc2)c1 returned Sa helicase inh 18 and MgrA-DNA mod 5.6.
`O=C(Cc1ccccc1)OCCN1C(=O)c2cccc3c(N4CCCCC4)ccc(c23)C1=O` gave MgrA-DNA mod 2.1.
`O=c1oc(-c2cc3ccccc3o2)nc2sc3c(c12)CCCC3` gave Sa helicase inh 7 and MgrA-DNA mod 4.0.

Ordered by length of the SMILES (low to high): some entries from above
For O=C(CSc1ccc2c(c1)OCCO2)NCc1ccco1 the results were Sa helicase inh 23.
`O=C(C1CCN(c2ccc(-c3cccs3)nn2)CC1)N1CCc2ccccc21` gave Sa helicase inh 9.
Screening CN(Cc1ccccc1)C(=O)c1nn2c(C(F)(F)F)cc(-c3ccco3)nc2c1Cl returned MgrA-DNA mod -1.0.
For CC(C)c1ccc(C2C3CN(C(C)C)CC=C3C(C#N)=C(N)C2(C#N)C#N)cc1 (stereo not drawn) the results were Sa helicase inh -3.
For CCc1cccc(NC(=O)C2CCN(Cc3cnn(-c4ccccc4)c3-n3cccc3)CC2)c1 the results were Sa helicase inh 22 and MgrA-DNA mod 4.7.

High-throughput results as filed in PubChem.
